# NS1 function inh – qHTS Assay for Inhibitors of Influenza NS1 Protein Function; S. cerevisiae slowed by influenza A NS1, growth recovery by OD600; Potency, µM (top dose mostly 46.1 µM), without a hit: at the top dose activity, positive = more growth; 0.4% of 270,000 active; AID 2326, 2010; note: actives are rising curves; nearly all actives have a fitted effect of over 50% in size
#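 S. cerevisiae expressing influenza A NS1, grown in glucose, washed, then diluted 1:100 into pH 6.0 -URA galactose medium with 23 nl compound. Growth recovery read as OD600; NS1-free strain serves as control.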
# StopGo reporter – High Throughput Screening for Foot and Mouth Disease Virus Antivirals. human cells with a luciferase reporter of 2A StopGo recoding; control for the full effect not named in the record. Potency, µM (series often up to 57.9 µM), for the others: at the top dose signal change, negative = less light. 1.2% of 410,000 active; active = well fitted falling curve with a large enough effect; inconclusive = small, poorly fitted or top-dose-only effect; inactive = no such curve, though single readings can be large or run the other way; tested in HEK293T cells; note: % is set by controls: 0 for no effect and ±100 for the full control effect; nearly all actives have a fitted effect of over 45% in size; luciferase light after 4 h
# Marburg entry inh – qHTS for inhibitors of binding or entry into cells for Marburg Virus | Potency, µM (highest dose often 37.8 µM), for inactives: at the highest dose activity change, negative = inhibition, actives largely listed as inhibitors | 1.8% of 300,000 active | AID 540276, 2011 | Marburg virus pseudotyped entry inhibition, cell reporter; control for the full effect not named in the record; about a third of the inactives were read at about 46 µM; active = well fitted inhibition curve with a large enough effect; inconclusive = small, poorly fitted or top-dose-only effect, or effect the other way; inactive = flat fitted curve, though single readings scatter; tested in HEK293 cells; about a fifth of its hits are not listed in these tables; note: % is set by controls: 0 for no effect and ±100 for the full control effect; luciferase read-out
# Cruzain inh Det – qHTS Assay for Promiscuous and Specific Inhibitors of Cruzain (with detergent) | Cruzipain (Trypanosoma cruzi), P25779 | purified cruzain, Z-FR-AMC fluorescence, 0.01% Triton | Potency, µM, for inactives: max response, negative = inhibition, most hits filed as inhibitors | 0.43% of 200,000 active; active = well fitted curve in the direction sought with a large enough effect; inconclusive = small, poorly fitted or top-dose-only effect, or another doubt; inactive = no such curve, though single readings can be large; an effect the other way counts as inactive or inconclusive;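 note: plate controls were neutral wells for no effect and buffer without enzyme for full effect; nearly all actives have a fitted effect of over 40% in size; top concentration of the series not given in the record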
# Target sequence (P25779 123-467 limits assumed): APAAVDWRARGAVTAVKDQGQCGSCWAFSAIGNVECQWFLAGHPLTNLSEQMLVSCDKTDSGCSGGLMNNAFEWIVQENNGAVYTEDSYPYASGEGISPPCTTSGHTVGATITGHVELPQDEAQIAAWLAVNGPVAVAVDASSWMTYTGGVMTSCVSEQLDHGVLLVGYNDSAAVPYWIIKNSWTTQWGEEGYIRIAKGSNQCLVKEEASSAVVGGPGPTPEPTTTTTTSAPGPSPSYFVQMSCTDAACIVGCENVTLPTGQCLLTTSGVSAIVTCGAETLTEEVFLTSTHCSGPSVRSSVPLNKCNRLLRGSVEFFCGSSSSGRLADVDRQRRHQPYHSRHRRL
#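 Cysteine protease activity tested under reducing, mildly acidic conditions (100 mM sodium acetate pH 5.5, 5 mM DTT) plus 0.01% Triton X-100. Cruzain 1.5 nM; substrate Z-FR-AMC 2 uM; 15 min compound preincubation at room temperature.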
# Cruzain noTriton – qHTS Assay for Promiscuous and Specific Inhibitors of Cruzain (without detergent). Cruzipain (Trypanosoma cruzi), P25779. purified cruzain, Z-FR-AMC fluorescence, no detergent. Potency, µM, for the others: max response, negative = inhibition, actives largely listed as inhibitors. 2.3% of 200,000 active; active = well fitted curve in the direction sought with a large enough effect; inconclusive = small, poorly fitted or top-dose-only effect, or another doubt; inactive = no such curve, though single readings can be large; an effect the other way counts as inactive or inconclusive;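 note: plate controls were enzyme without inhibitor for no effect and buffer without enzyme for full effect; nearly all actives have a fitted effect of over 40% in size; top concentration of the series not given in the record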
#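 Purified cruzain at 1.5 nM, pre-incubated 15 min with compound at room temperature in 100 mM sodium acetate pH 5.5, 5 mM DTT, 0.00005% Triton X-100. Reaction started with 2 uM Z-FR-AMC; AMC fluorescence increase over 60 s gives rate.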
# RE007 growth inh – qHTS Assay for Inhibitors of the HIV-1 protein Vpr. S. pombe RE007 Vpr strain, BacTiter-Glo ATP luminescence, 24 h; control for the full effect not named in the record. Potency, µM (top dose mostly 92.2 µM), for inactives: at the highest dose activity change, negative = less growth. 0.21% of 360,000 active; active = well fitted falling curve with a large enough effect; inconclusive = small, poorly fitted or top-dose-only effect; inactive = no such curve, though single readings can be large or run the other way;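 note: % is set by controls: 0 for no effect and ±100 for the full control effect; nearly all actives have a fitted effect of over 50% in size; the assay follows cell death caused by Vpr and the record does not say whether a fall means rescue or toxicity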
#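 Fission yeast RE007 carrying one integrated HIV-1 vpr copy, seeded at OD 0.01 in PMG+AL medium with 23 nL pinned compound. Grown 24 h at 30 degrees; viability read by BacTiter-Glo luminescence after 5 min.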
# SARS PLP yeast – qHTS of Yeast-based Assay for SARS-CoV PLP. Potency, µM (doses to about 32.9 µM), without a hit: at the highest dose activity, positive = growth rescue. AID 485353, 2010. 0.19% of 330,000 active. S. cerevisiae expressing SARS-CoV PLpro, growth rescue; control for the full effect not named in the record; note: 0% is about no effect; nearly all actives have a fitted effect of over 55% in size; growth read by luminescence after 48 h
# Lassa entry inh – qHTS for Inhibitors of binding or entry into cells for Lassa Virus; Potency, µM (series often up to 37.9 µM), for inactives: top-dose activity change, negative = inhibition, actives largely listed as inhibitors; 1.2% of 300,000 active; Lassa virus pseudotype entry inhibition, cell reporter; control for the full effect not named in the record; active means well fitted inhibition curve with a large enough effect; inconclusive means small, poorly fitted or top-dose-only effect, or effect the other way; inactive means flat fitted curve, though single readings scatter; tested in HEK293 cells; note: % is set by controls: 0 for no effect and ±100 for the full control effect; nearly all actives have a fitted effect of over 50% in size; luciferase read-out
# * marks the source's active call; other numbers are inactive results; ? = inconclusive; / = no result given; & = joins results of further samples; [ ] = another dose, or the depositor's remark. Unless noted, calls come from the whole dose curve; as a rule, active means well fitted rising curve with a large enough effect; inconclusive means small, poorly fitted or top-dose-only effect; inactive means no such curve, though single readings can be large or run the other way. Potency is the fitted concentration of half-maximal effect.
SMILES,NS1 function inh,StopGo reporter,Marburg entry inh,Cruzain inh Det,Cruzain noTriton,RE007 growth inh,SARS PLP yeast,Lassa entry inh
COc1cc(NC2c3ccccc3C(=O)N2Cc2ccccc2)cc(OC)c1OC (stereo not given),-26%,31%[activator],0%[46.1 µM],/,/,-3%,-1%,-7%
Cc1ccccc1-n1nc2c(c1NC(=O)C(C)C)CS(=O)(=O)C2,1%,-5%,/,/,/,7%,-1%,/
CC(=O)Nc1ccc(O)cc1[N+](=O)[O-],7%,-7%,4%[46.1 µM],/,/,1%,2%,?
O=C(NC1CC1)C1=C[C@@H](c2csc3ccccc23)C[C@@H](OCc2ccc(CO)cc2)O1,4%,-14%,/,/,/,-3%,-4%,/
OC(CNc1nc(C(F)(F)F)nc2ccccc12)c1ccccc1 (stereo not given),-3%,-22%,?,/,/,2%,-9%,?
CC(=O)C1=C(C)N(c2ccccc2)C(=O)C1(NS(=O)(=O)c1ccc(N)cc1)C(F)(F)F (stereo not given),/,10%,7%[46.1 µM],/,/,-13%,-1%,-2%
C[C@]12CCC3[C@@H](CCC4=CC(=O)CC[C@@]43CO)C1CCC2=O (stereo not given in full),5%,2%,0%,/,/,-5%,1%,/
CCOC(=O)C(Cc1c[nH]c2ccccc12)NC(=O)c1ccco1 (stereo not given),-75%,21%,?,-6.1%,10%,3%,-6%,5%
CCN1CCN(c2oc(COc3ccc(-c4ccccc4)cc3)nc2C#N)CC1,/,?,-16%,0.5%,3%,-19%,-10%,-20%
COc1ccc(C(=O)N/N=C(\c2ccccc2)c2ccccn2)cc1,-52%,-33%,9.2µM*,-2.9%,-2%,/,-75%,?
Cc1cc2nc(CN(C)Cc3c(C(=O)N(C)C)nc4ccc(Cl)cn34)[nH]c2cc1C,2%,48%,-22%[46.1 µM],/,/,0%,0%,-7%
CN1CCC(O)(c2cccs2)C(C(=O)c2cccs2)C1 (stereo not given),0%,0%,?,/,/,?,-7%,?
COc1ccc(OC)c(S(=O)(=O)N2CCCC(C(=O)NCCc3ccccc3)C2)c1 (stereo not given),-1%,-4%,?,/,/,-1%,5%,-22%
COC(=O)C1=C(C)N(C)C(=O)NC1c1cc(Cl)c(O)c(OC)c1 (stereo not given),?,/,-6%,2.8%,-1%,0%,-8%,0%
O=C(COC(=O)c1cc(-c2ccccc2)nc2c(Cl)cccc12)c1ccc(F)cc1,/,0%,3%[46.1 µM],-1.7%,-4%,/,/,-25%[46.1 µM]
Cc1[nH]c2ccccc2c1/C=N/Nc1nncn1N,1%,59%[activator],?,/,/,1%,-3%,/
CC(=O)N(C)c1ccc(NC(=S)Nc2ccccc2)cc1,13%,38%[activator],13%,1.7%,-8%,5%,4%,0%
COCCCN1CC(=O)N2C(c3ccc(OC)c(OC)c3)c3[nH]c4ccccc4c3C[C@H]2C1=O (stereo not given in full),-4%,-12%,?,/,/,5%,-3%,6%[46.1 µM]
COc1ccc(NC(=O)Cn2c(=O)n(-c3cccc(C)c3)c(=O)c3c2c2cc(C)ccc2n3C)cc1OC,/,-7%,12%[46.1 µM],0.7%,-8%,/,/,-2%[46.1 µM]
O=C1CC(Sc2nnnn2-c2ccccc2)C(=O)N1c1cccc(Cl)c1 (stereo not given),-59%,-7%,?,-6.6%,-1%,7.1µM*,-23%,?
Cc1cccc(CN2C(=O)c3ccccc3S(=O)(=O)c3ccc(C(=O)NC4CCCCC4)cc32)c1,/,-13%,?,-0.4%,-28%,/,/,-19%[46.1 µM]
O=C(NCc1ccccc1)C1COc2ccccc2O1 (stereo not given),1%,46%[activator],6%,-2.6%,?,-17%,-3%,15%
Cc1ccc(F)c(Oc2cc(NN3CCCCC3)c([N+](=O)[O-])cc2[N+](=O)[O-])c1,3%,?,/,/,/,-3%,2%,/
CC(OC(=O)c1cc2sccc2n1C)C(=O)NCc1ccc(F)cc1 (stereo not given),-15%,0%,0%,5.3%,-6%,2%,1%,-15%
O=C1CCCC2=C1C(c1ccsc1)CC(=O)N2c1ccccc1F (stereo not given),/,-6%,?,/,/,-9%,-6%,-18%[46.1 µM]
# (listing goes on)
SMILES,NS1 function inh,StopGo reporter,Marburg entry inh,Cruzain inh Det,Cruzain noTriton,RE007 growth inh,SARS PLP yeast,Lassa entry inh
CCOCC(=O)Nc1nnc(Cc2ccc(OC)cc2)s1,-8%,-13%,5%,1.9%,-1%,-6%,-1%,-21%
COc1ccc2nc(Nc3nc(CSc4nnnn4-c4ccccc4)cc(=O)[nH]3)nc(C)c2c1,-4%,15%,1%,-0.4%,?,-2%,-1%,0%
CCOC(=O)c1ccccc1NC(=O)N(Cc1ccc(CC)cc1)Cc1cn[nH]c1-c1ccc(OC)cc1,/,?,?,-7.5%,-5%,/,/,-2%[46.1 µM]
CCCCOc1ccc(N=Cc2cccs2)cc1,4%,34%[activator],-5%,-1.6%,5%,0%,-23%,28%
Cc1cc2c(cc1C)/C(=C\C(N)=O)NC(C)(C)C2,1%,-8%,0%&0%,-0.4%,4%,3%,5%,11%
CCCCN(C)CCNC(=O)c1cc2c(=O)n(C)c3ccccc3c2n1C,/,-13%,-26%[46.1 µM],-5.3%,-4%,/,/,21%[46.1 µM]
Cc1csc2sc(-c3ccnc(SCC(=O)NCc4ccccc4)n3)c(C)c12,9%,-19%,?,/,/,-5%,1%,?
Cc1nc(NC(=S)NC(=O)c2ccco2)sc1C(=O)N(C)C,8%,19%,/,/,/,-11%,3%,/
COc1ccc(NC(=O)CSc2nc(N)c3cc4c(nc3n2)CCCC4)c(OC)c1,1%,-2%,-16%,-2.0%,-4%,-9%,3%,-13%
CN(C(=O)c1coc(=O)c2ccccc12)c1ccccc1Cl,5%,-13%,?,/,/,12%,-4%,-14%[46.1 µM]
O=S(=O)(c1ccc(-c2cc(C(F)(F)F)on2)s1)N1CCN(c2ccccc2F)CC1,/,-23%,/,1.9%,-19%,/,/,?
CC(Oc1ccc(Cl)cc1Cl)C(=O)NNC(=O)c1ccncc1 (stereo not given),/,11%,6%,/,/,13%,2%,5%[46.1 µM]
CC(C)Cn1c(=O)c2ccccc2n2c(SCC(=O)N3c4ccccc4CC3C)nnc12 (stereo not given),7%,-14%,?,-1.7%,?,-11%,2%,0%
O=C(c1ccc2c(c1)OCCO2)N1CCN(Cc2ccccc2)CC1,-54%,-3%,2%,8.0%,-5%,30%,7%,3%
S=C(NNC(=S)Nc1ccccc1)Nc1ccccc1,-40%,69%[activator],?,/,/,7%,0%,?
O=C(O)COc1ccccc1/C=N/Nc1ccc(S(=O)(=O)Nc2ccc(Cl)cc2)cc1[N+](=O)[O-],10%,44%[activator],/,/,/,5%,0%,/
CN1CCN(CC(=O)Nc2ccc(Cl)cc2C(=O)c2ccccc2)CC1,3%,-7%,?,-0.1%,-12%,3%,0%,-10%
COc1cc(C(=O)OCC(=O)N2CCOCC2)c([N+](=O)[O-])cc1OC,7%,5%,12%[46.1 µM],/,/,-13%,1%,5%
CCN1C(=O)CC(N2CCN(c3ccc(Cl)cc3)CC2)C1=O (stereo not given),-31%,?,2%[46.1 µM],-1.2%,8%,-15%,1%,4%
COc1ccc(NC(=O)CN(C)C(=O)CCCNC(=O)c2ccc(Cl)cc2)cc1,/,25%,?,/,/,7%,6%,11%
COc1ccc(N2CCN(S(=O)(=O)c3ccc4c(c3)CCCN4C(C)=O)CC2)cc1,/,0%,/,0.6%,0%,/,/,0%[46.1 µM]
COc1cc(C2C(C#N)=C(N)OC3=C2C(=O)CC(C)(C)C3)ccc1OCCN1CCOCC1 (stereo not given),4%,?,12%[46.1 µM],/,/,-7%,0%,?
COc1ccc(Nc2nnc(-c3ccc(C(N)=O)cc3)c3ccccc23)cc1,?,-21%,-6%,/,/,-17%,8%,-21%
O=C1CCC(c2ccc(-n3ccnc3)cc2)=NN1,3%,-14%,?,4.0%,-5%,0%[18.4 µM],/,?
CC(Cc1ccccc1)NC(=O)C1(c2ccccc2)CCOCC1 (stereo not given),13%,-13%,8%,12%,4%,0%,0%,17%
# Other records
SMILES,NS1 function inh,StopGo reporter,Marburg entry inh,Cruzain inh Det,Cruzain noTriton,RE007 growth inh,SARS PLP yeast,Lassa entry inh
COc1ccc(CNC(=O)CSc2c3c(nc4ccc(Cl)cc24)CCCC3)cc1,/,?,21%[46.1 µM],-3.8%,-4%,/,/,4%[46.1 µM]
O=C1CCC(c2ccccc2)=NN1,/,-4%,1%[46.1 µM],/,/,-15%,-3%,5%
O=C(Cn1ncc2ccsc2c1=O)N1CCN(c2ccc(Cl)cc2)CC1,/,0%,?,-5.8%,-11%,/,/,-5%[46.1 µM]
Cc1cccc(-c2nc(C#N)c(N3CCCCCC3)o2)c1,-6%,/,14%,-29%,26%,8%,-7%,-2%
CN(CC1CCOCC1)C(=O)CC1C(=O)NCCN1Cc1cccc(Oc2ccccc2)c1 (stereo not given),2%,-10%,/,/,/,8%,1%,/
Cc1ccc(S(=O)(=O)N2CCC(O)(c3cccnc3)CC2)cc1,11%,/,2%,7.5%,15%,-8%,9%,?
COc1cccc(CNC(=O)CCc2nnc(C3CCCCC3)o2)c1,-6%,-6%,-12%[46.1 µM],/,/,-4%,2%,5%[46.1 µM]
CC1=C(C(N)=O)C(c2ccc(Cl)cc2)n2nc(CCCO)nc2N1 (stereo not given),3%,-23%,/,/,/,-3%,0%,/
COc1cc(-c2nc(CN(C)C(C)c3ccncn3)c(C)o2)ccc1F (stereo not given),1%,-13%,?,/,/,-13%,0%,-7%
O=C(CN(c1cccc(C(F)(F)F)c1)S(=O)(=O)c1ccccc1)Nc1cccc(Cl)c1,/,?,/,-6.1%,-6%,/,/,-15%[46.1 µM]
CC(=O)Nc1ccc(NS(=O)(=O)c2cn(C)c(=O)n(C)c2=O)cc1,-7%,-7%,/,0.7%,-2%,13%,2%,/
CCC(CC)C(=O)Nc1ccc(C(=O)OCc2cc(=O)n3nc(C4CC4)sc3n2)cc1,/,?,/,-1.8%,25%,/,/,?
CC(=O)Oc1ccc(C(=O)NCc2ccc3c(c2)OCO3)cc1,-9%,12%,/,/,/,7%,?,/
CSC1=NCCCN1C(=O)c1c(-c2ccccc2Cl)noc1C,12%,-5%,/,/,/,-7%,0%,/
